Source: PubChem
GLA inh pH 4.5: blocks human alpha-galactosidase A at pH 4.5; purified enzyme, 4-MU-alpha-Gal fluorescence, pH 4.5; activity change, negative = inhibition, % at 105 µM; 230,000 tested, under 10 active; AID 1467; inconclusive = small, poorly fitted or top-dose-only inhibition, or a rising curve; inactive = flat fitted curve, though single readings scatter; no compound was filed as active;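 note: 0% = full activity with enzyme and -100% = basal without enzyme; dose as in the result columns while the protocol names 77 µM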
Rango release inh: inhibition of RanGTP-driven Rango-importin beta dissociation | O95149+P62826 | Biochemical FRET Rango-importin beta, RanGTP-induced dissociation | Potency, µM (top dose mostly 46.1 µM), without a hit: top-dose activity change, negative = inhibition | 0.071% of 340,000 active; active means falling FRET ratio curve, often poorly fitted, with flat reads before Ran was added; inconclusive means other falling curves, or compound fluorescence or quenching; inactive means flat or rising ratio curve;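 note: potency is the fitted concentration of half-maximal effect; % of control where 0% means no effect; nearly all actives have a fitted effect of over 45% in size; -100% = wells without RanGTP and RCC1; the record marks most hits as doubtful in a second field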
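Rango (0.1 uM)–importin beta (0.25 uM) complex; RanGTP-RCC1 trigger; 45 min RT; CFP/YFP FRET read.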
miR-21 FLuc: raises the signal of a miR-21 reporter. HeLa miR-21 FLuc reporter, luciferase, 48 h. Potency, µM (highest dose often 38.3 µM), for the others: at the top dose reporter change, positive = more light. 340,000 tested, under 10 active; active = well fitted rising curve with a large enough effect; inconclusive = small, poorly fitted or top-dose-only effect; inactive = no such curve, though single readings can be large or run the other way;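 note: % of control where 0% means no effect; miR-21 action dims this reporter so a rising signal means less miR-21 action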
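Using DMEM plus 10% FBS, HeLa miR-21-FLuc cells are incubated with test compounds (final up to about 40uM) for 48 hours; firefly luciferase signal is then imaged following reagent-mediated lysis.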
Rango-impB inh: inhibitors of Rango-importin beta complex formation. 0.031% of 340,000 active. Rango CFP/YFP FRET sensor + importin beta, 45 min. Q14974. Potency, µM (titrated, usually from 92.2 µM), without a hit: top-dose inhibition of complex formation; active = rising FRET ratio curve, often small or poorly fitted; inconclusive = mostly compound fluorescence or quenching in the first reads; inactive = flat curves in all reads;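 note: potency is the fitted concentration of half-maximal effect; 0% = DMSO wells and 100% = buffer wells lacking importin beta; nearly all actives have a fitted effect of over 15% in size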
Target sequence (Q14974 whole entry, looked up): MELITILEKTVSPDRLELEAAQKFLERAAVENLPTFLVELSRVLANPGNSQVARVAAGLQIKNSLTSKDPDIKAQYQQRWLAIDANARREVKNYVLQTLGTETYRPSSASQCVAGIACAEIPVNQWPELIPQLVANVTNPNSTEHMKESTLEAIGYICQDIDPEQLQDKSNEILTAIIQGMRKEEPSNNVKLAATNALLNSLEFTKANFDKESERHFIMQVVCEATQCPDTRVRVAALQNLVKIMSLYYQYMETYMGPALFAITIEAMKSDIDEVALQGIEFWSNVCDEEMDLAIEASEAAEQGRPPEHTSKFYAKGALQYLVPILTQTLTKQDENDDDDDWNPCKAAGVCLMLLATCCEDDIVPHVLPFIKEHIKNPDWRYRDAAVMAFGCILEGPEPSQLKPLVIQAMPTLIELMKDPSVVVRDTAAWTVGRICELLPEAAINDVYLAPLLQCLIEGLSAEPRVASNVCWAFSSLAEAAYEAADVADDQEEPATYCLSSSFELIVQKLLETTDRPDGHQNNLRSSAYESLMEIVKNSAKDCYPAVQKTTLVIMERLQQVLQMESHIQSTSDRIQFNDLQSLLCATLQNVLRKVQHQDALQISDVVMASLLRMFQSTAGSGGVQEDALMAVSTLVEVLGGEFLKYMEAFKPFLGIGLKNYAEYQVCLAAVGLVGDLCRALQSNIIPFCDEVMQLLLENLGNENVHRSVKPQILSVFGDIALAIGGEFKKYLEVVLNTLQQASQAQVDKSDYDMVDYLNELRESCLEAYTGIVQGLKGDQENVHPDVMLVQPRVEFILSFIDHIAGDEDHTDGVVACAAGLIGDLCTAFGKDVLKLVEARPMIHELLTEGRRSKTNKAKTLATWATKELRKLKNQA
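Inhibition scored from the CFP 486 nm/YFP 530 nm FRET ratio 45 min after adding 0.125 microM importin beta to 50 nM Rango biosensor preincubated 5 min with compound (room temperature, PBS with DTT, Tween-20, BSA). No-importin wells as positive control.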
An asterisk follows results filed as active; ? = inconclusive; . = no result given; [ ] = another dose, or the depositor's remark. Some of the compounds tested, so the mix of outcomes need not match the whole.

GLA inh pH 4.5 | miR-21 FLuc | Rango release inh | Rango-impB inh | SMILES
. | . | 10.9% | 2.4% | Cc1cc(C)c(C=NNc2nc3c([nH]2)c(=O)n(C)c(=O)n3C)c(C)c1
4.0 | -1.6% | 8.2% | 2.7% | Cc1cc(C)cc(C(=O)N2CCCCCC2)c1
-29.0 | 2.2% | 13.3% | 3.5% | COc1ccc(NS(=O)(=O)c2cc(C(=O)O)ccc2C)cc1
-2.6 | -22.3% | -3.0% | -3.3% | COc1ccc(C(=O)c2oc3ccccc3c2NC(C)=O)cc1
-9.0 | 5.1% | -0.6% | ? | Cc1nnc(SCC(=O)c2c(N)n(Cc3ccccc3)c(=O)n(C)c2=O)n1C
. | . | 19.7% | 0.1% | C=CCCC1CN(Cc2ccco2)S(=O)(=O)c2c(F)cccc2O1 (stereo unspecified)
. | . | -13.7% | -0.9% | O=C(C[C@@H]1C/C=C\C[C@@H](NC(=O)OCC2c3ccccc3-c3ccccc32)C(=O)OC[C@@H](Cc2ccccc2)NC1=O)NCCO
2.0 | 0.1% | -14.5% | ? | CS(=O)(=O)NN1C(=O)c2ccccc2NC1c1cccc(O)c1 (stereo unspecified)
-14.6 | -58.0% | 1.3% | -0.8% | O=C1NCCC/C1=N/Nc1cc(F)ccc1F
-0.1 | -77.1% | -8.8% | 1.1% | O=C1c2ccccc2S(=O)(=O)N1CC1CC(c2ccccc2Cl)=NO1 (stereo unspecified)
7.1 | -1.9% | -8.3% | -5.1% | O=C1CC(c2ccsc2)c2ccc3ccccc3c2N1 (stereo unspecified)
2.5 | -63.3% | 37.7% | -1.9% | COc1n[nH]c(C(=O)Nc2nc3ccccc3s2)c1[N+](=O)[O-]
2.3 | -5.4% | 0.9% | 2.5% | Cc1ccc(/C=C/C(=O)OCn2nnc3ccccc3c2=O)o1
-0.6 | -9.9% | 2.9% | 1.8% | CC(C)c1ccc(C2NC(=S)NC3=C2C(=O)CC(C)(C)C3)cc1 (stereo unspecified)
1.2 | -5.4% | -12.4% | 2.2% | NS(=O)(=O)c1ccc(CNC(=O)/C=C/c2cccc([N+](=O)[O-])c2)cc1
. | -0.1% | -1.5% | 0.2% | COc1ccccc1C(=O)NNC(=O)CN1C(=O)c2ccccc2C1=O
1.0 | -2.2% | -16.2% | 0.1% | S=C(Nc1ccc(Br)cc1Cl)Nn1cnnc1
0.5 | 0.5% | 4.6% | -1.1% | COc1ccc(Cn2cnc([N+](=O)[O-])c2)cc1[N+](=O)[O-]
-16.7 | 3.6% | 4.7% | -1.7% | Cc1cc(C)n(-c2nc3ccccc3nc2N2CCN(S(=O)(=O)c3ccc4ccccc4c3)CC2)n1
2.7 | 15.5% | -1.0% | -3.0% | CCOC(=O)CSc1cccc2cccnc12
. | -3.3% | 5.3% | 0.4% | Cc1ccc(-c2csc3ncnc(N4CCN(Cc5ccccc5)CC4)c23)cc1
. | -60.3% | 31.5% | 0.2% | COc1nccnc1NS(=O)(=O)c1ccc(NCc2cc(Br)ccc2O)cc1
-7.0 | -5.2% | 19.1% | 1.8% | CCCOc1ccc(C(=O)c2ccccc2C(=O)O)cc1OCCC
. | . | 0.4% | -1.6% | C=CCOc1ccc(C=CC(=O)c2c(O)c(OC)c(OC)c(OC)c2OC)cc1
. | . | 13.5% | 1.2% | O=S(=O)(Nc1ccc2ccccc2c1)N1CCCCC1
5.8 | 0.0% | 3.5% | 0.0% | Cc1ccc(NC(=O)c2nc[nH]c2C(=O)Nc2ccc(C)cc2)cc1
. | . | 0.4% | -2.1% | COc1ccc(CN(C)CC(=O)Nc2ccccc2C(=O)NC2CC2)cc1OC
. | . | 3.5% | 4.9% | Cc1ccc(NC(=O)CN(C)C(=O)c2cccc(S(=O)(=O)NCc3ccco3)c2)cc1
. | . | -11.1% | 0.7% | CCCCC(CC)COC(=O)c1ccc(N(C)C)cc1 (stereo unspecified)
5.9 | -3.7% | -8.4% | -3.0% | Cc1cc(C)n(-c2ccc(S(=O)(=O)N3CCOCC3)cc2[N+](=O)[O-])n1
. | 11.3% | -5.4% | 5.2% | O=C(NC(=S)NC1CCN(Cc2ccccc2)CC1)c1ccc(F)cc1
. | 9.6% | 12.6% | 1.5% | O=C(Nc1ccccc1C(=O)N1CCN(c2cccc(Cl)c2)CC1)C1=CSCCO1
2.0 | -2.4% | -1.1% | 1.3% | CC(C)(C)[C@H]1C=C(C(=O)N2CCOCC2)O[C@@H](OCCCCO)C1
-9.4 | -29.9% | 14.9% | 1.9% | O=C(Nc1ccccc1)c1ccc2nsnc2c1
. | 14.1% | 4.2% | 0.5% | CCOc1ccc(S(=O)(=O)Nc2nc3ccccc3nc2Cl)cc1
-1.6 | -2.5% | -15.0% | 0.4% | COC(=O)CCC(=O)Nc1ccc(Br)cc1
. | . | -0.2% | 6.4% | CCc1noc(C)c1C(=O)NNC(=O)c1ccccc1
. | . | -6.3% | -0.8% | Cc1cc(C(=O)COC(=O)c2ccc(F)cc2)c(C)n1C
1.7 | -13.1% | -2.1% | 1.1% | COc1ccc(NC(=O)c2cc(C)on2)cc1OC
1.0 | -29.4% | 9.7% | -0.1% | O=C(CC1SC(=O)NC1=O)Oc1ccc(/C=N/NC(=O)c2ccccc2O)cc1 (stereo unspecified)
. | 1.2% | 8.3% | 4.3% | Cc1ccccc1NC(=O)COC(=O)C1C2CC3OC(=O)C1C3C2 (stereo unspecified)
1.6 | -7.0% | -8.0% | 1.3% | COC(=O)c1ccc(NC(=O)Cc2ccc(C)cc2)cc1
0.9 | -1.3% | -4.4% | -2.7% | CCS(=O)(=O)c1ccc(O)c(NC(=O)COc2ccc(Cl)cc2)c1
-0.1 | -21.1% | 1.3% | -2.1% | CC1Cc2nc(SCC(=O)NCc3ccccc3)n(Cc3ccccc3)c(=O)c2S1 (stereo unspecified)
6.9 | 1.0% | 15.2% | -4.6% | CCn1c(SCC(=O)NCc2ccco2)nc2ccccc2c1=O
6.0 | -8.2% | 0.1% | 0.1% | COc1ccc(/C=C/C(=O)NCCCn2ccnc2)cc1
8.6 | -61.0% | 2.7% | -1.2% | COc1cc(NC(=O)c2ccccc2Cl)ccc1NC(=O)c1ccco1
5.2 | 2.0% | -14.0% | 0.1% | COc1ccc(NC(=O)CN(C)C(C)C(=O)N2CCCCC2)cc1 (stereo unspecified)

3 consecutive records already listed:
GLA inh pH 4.5 | miR-21 FLuc | Rango release inh | Rango-impB inh | SMILES
. | 1.2% | 8.3% | 4.3% | Cc1ccccc1NC(=O)COC(=O)C1C2CC3OC(=O)C1C3C2 (stereo unspecified)
1.6 | -7.0% | -8.0% | 1.3% | COC(=O)c1ccc(NC(=O)Cc2ccc(C)cc2)cc1
0.9 | -1.3% | -4.4% | -2.7% | CCS(=O)(=O)c1ccc(O)c(NC(=O)COc2ccc(Cl)cc2)c1

The main list resumes; the 7 compounds before the break are reprinted first.
GLA inh pH 4.5 | miR-21 FLuc | Rango release inh | Rango-impB inh | SMILES
1.6 | -7.0% | -8.0% | 1.3% | COC(=O)c1ccc(NC(=O)Cc2ccc(C)cc2)cc1
0.9 | -1.3% | -4.4% | -2.7% | CCS(=O)(=O)c1ccc(O)c(NC(=O)COc2ccc(Cl)cc2)c1
-0.1 | -21.1% | 1.3% | -2.1% | CC1Cc2nc(SCC(=O)NCc3ccccc3)n(Cc3ccccc3)c(=O)c2S1 (stereo unspecified)
6.9 | 1.0% | 15.2% | -4.6% | CCn1c(SCC(=O)NCc2ccco2)nc2ccccc2c1=O
6.0 | -8.2% | 0.1% | 0.1% | COc1ccc(/C=C/C(=O)NCCCn2ccnc2)cc1
8.6 | -61.0% | 2.7% | -1.2% | COc1cc(NC(=O)c2ccccc2Cl)ccc1NC(=O)c1ccco1
5.2 | 2.0% | -14.0% | 0.1% | COc1ccc(NC(=O)CN(C)C(C)C(=O)N2CCCCC2)cc1 (stereo unspecified)
-2.8 | -0.3% | -4.9% | 0.9% | CCn1c(SCC(=O)NCc2ccco2)nnc1C(C)C
-5.1 | 1.7% | 24.7% | 0.9% | CN1C(=O)OC(C)(CCc2ccccc2)C1(C)O (stereo unspecified)
-2.0 | -6.4% | -0.9% | -1.2% | COc1cccc2cc(C(=O)NCCC3=CCCCC3)c(=O)oc12
-1.4 | -8.1% | 1.3% | -2.7% | CC1Cc2nc(SCC(=O)NC3CCCCC3)n(C)c(=O)c2S1 (stereo unspecified)
7.4 | -16.8% | -14.9% | -2.6% | CCCCNC(=O)c1onc(CSc2ccccc2)c1C(=O)O
0.0 | -3.9% | 0.7% | 5.0% | CCOc1cc(C(=O)OCC(=O)Nc2ncc(Cl)c(C)c2Cl)ccc1OCC(=O)N1CCOCC1
-0.6 | 0.2% | -1.6% | 2.3% | Cc1ccc(N2C(=O)CC(Nc3ccccc3)C2=O)cc1 (stereo unspecified)
2.0 | -32.6% | -10.4% | 3.0% | Cc1ccc(/C=N/N2CCOCC2)s1
5.4 | 11.3% | -11.4% | -1.1% | CSc1nc(-c2ccccc2)c(C#N)c(=O)[nH]1
2.8 | 0.7% | 11.1% | ? | Cc1ccc(S(=O)(=O)c2c(C)cc(C)nc2N2CCCCC2)cc1
. | -2.6% | 17.4% | -1.4% | COc1ccc(NC(=O)C2CC(c3ccccc3O)=NO2)cc1OC (stereo unspecified)
. | . | 0.6% | 0.3% | CC1CN(C(=O)COC(=O)Cc2ccc(Cl)cc2)CC(C)O1 (stereo unspecified)
6.4 | -0.2% | -7.1% | -2.5% | Cc1nn2c(CN(C(=O)CN3CCOCC3)c3ccccc3)nnc2c2ccccc12
3.0 | -3.7% | -11.0% | 6.6% | Cc1cccc(N2CCN(C(=O)c3ccccc3NC(=O)C3CC=CCC3C(=O)O)CC2)c1 (stereo unspecified)
6.9 | -49.1% | 2.7% | ? | CCOc1ccc(NC(c2ccccn2)c2oc(CO)cc(=O)c2O)cc1 (stereo unspecified)
. | 3.1% | ? | -1.9% | O=C(CCC(=O)N1CCOc2ccc(Cl)cc21)NCCCN1CCN(Cc2ccccc2)CC1
-10.5 | -1.7% | 8.7% | -1.8% | O=C(CNS(=O)(=O)c1ccc2ccccc2c1)OCC(=O)c1ccc(Br)s1
-4.6 | 13.7% | 4.9% | 5.2% | CCCCOCCCNC(=S)Nc1ccc(S(=O)(=O)N2CCOCC2)cc1
-8.5 | -3.6% | 12.2% | 2.2% | Cc1ccc(C(=O)NC(C)(COc2nonc2C)COc2nonc2C)cc1
-3.6 | -3.6% | -0.5% | -4.2% | O=C(NC1CCCC1)c1ccc(CS(=O)(=O)c2cccc(C(F)(F)F)c2)o1
. | . | 8.1% | -0.5% | CCN(C(=O)c1ccc(S(=O)(=O)N2CCC(C)CC2)cc1)C1CCS(=O)(=O)C1 (stereo unspecified)
? | -8.1% | -3.7% | 5.7% | COc1cccc(Cn2cnc3c(N)c(C)c(C)cc32)c1
-7.5[21.1 µM] | -2.0% | -2.3% | -0.4% | CCn1c(=O)cc(SCC(=O)Nc2cccc(C)n2)c2ccccc21
-9.5 | -26.9% | -2.4% | 2.8% | COC(=O)C(C)Sc1ncnc2c1nnn2-c1ccc(F)cc1 (stereo unspecified)
. | . | 4.1% | 4.8% | COc1ccccc1NS(=O)(=O)c1ccc(NC(=O)c2ccccn2)cc1
-1.4 | -12.4% | 21.3% | 4.0% | CCc1cc(C(=O)O)c(NC(=O)/C=C/c2ccc(OC)c(OC)c2)s1
. | 5.2% | 1.7% | 1.1% | COc1ccc(N2CCOCC2)c(NC(=O)c2ccc(Br)o2)c1
. | -0.8% | -4.7% | 5.8% | CCOc1ccc(CCNC(=O)C2CC(=O)N(CCc3ccc(OC)c(OC)c3)C2)cc1OCC (stereo unspecified)
. | . | 5.7% | -0.4% | Cc1ccc(S(=O)(=O)NCC(=O)NNC(=O)c2ccc(Br)cc2)cc1C
. | . | 1.6% | 2.3% | O=S(=O)(NCc1ccc(F)cc1)c1ccc(Br)cc1Br
-3.6 | -1.0% | -1.3% | -3.0% | Cc1nc2ccc(S(=O)(=O)N(C)CC(=O)Nc3ccccc3F)cc2s1
. | -26.6% | -7.7% | -3.9% | N#Cc1cnc(Oc2ccc(Cl)cc2)nc1N
0.7 | -32.6% | -3.0% | -4.0% | COc1ccc(NC(=O)c2oc3ccccc3c2C)c(OC)c1
0.3 | 9.0% | -5.5% | -1.4% | OCC(Cc1ccc2c(c1)OCO2)C(CO)Cc1ccc2c(c1)OCO2 (stereo unspecified)
